Compound activity from PubChem.
Ran FRET – inhibitors of Ran–importin-beta complex formation, primary screen, biochemical, CFP-Ran/YFP-importin-beta FRET, RCC1, cell-free (AID 434961) | inhibition, % | CFP-Ran/YFP-importin-beta FRET, cell-free; active compounds read high | actives 0.2% (n = 7,700);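 active = more than half of the replicate wells above 15% inhibition; inconclusive = exactly half above it; inactive = fewer than half above it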;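 also: 0% = DMSO wells and 100% inhibition = RanGDP control wells on each plate; stock of unstated strength diluted about 400-fold; mean of two wells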
Numbers without * were called inactive; ? = inconclusive. A portion of the library; rates above refer to the full screens.

| Ran FRET | SMILES |
| --- | --- |
| 2.8 | Cc1noc(C)c1NC(=O)N(C)C[C@H]1Oc2c(NC(=O)Nc3ccc(C(F)(F)F)cc3)cccc2C(=O)N([C@@H](C)CO)C[C@H]1C |
| 1.6 | C[C@@H]1CCCCO[C@@H](CN(C)C(=O)Nc2ccccc2)[C@@H](C)CN([C@H](C)CO)C(=O)c2cc(NC(=O)CCC(F)(F)F)ccc2O1 |
| 2.5 | C[C@@H]1CN([C@@H](C)CO)C(=O)CCCn2nncc2CO[C@@H]1CN(C)C(=O)Nc1ccccc1C(F)(F)F |
| -3.5 | Cc1noc(C)c1NC(=O)Nc1ccc2c(c1)CC(=O)N([C@@H](C)CO)C[C@@H](C)[C@@H](CN(C)C(=O)Nc1cccc3ccccc13)O2 |
| 0.0 | C[C@@H]1CN([C@H](C)CO)C(=O)c2cccc(NC(=O)Nc3ccc(C(F)(F)F)cc3)c2O[C@@H]1CN(C)CC1CC1 |
| -1.0 | C[C@H](CO)N1C[C@H](C)[C@@H](CN(C)C)Oc2ccc(NC(=O)Nc3cccc4ccccc34)cc2C1=O |
| -6.2 | Cc1noc(C)c1NC(=O)N(C)C[C@@H]1Oc2ccc(NS(=O)(=O)c3cn(C)cn3)cc2C(=O)N([C@H](C)CO)C[C@@H]1C |
| -1.4 | C[C@H]1CN([C@@H](C)CO)C(=O)c2cccc(NC(=O)C3CCOCC3)c2O[C@H]1CN(C)C |
| -3.9 | C[C@H]1CN([C@@H](C)CO)C(=O)c2cc(NC(=O)Nc3cccc4ccccc34)ccc2O[C@@H]1CN(C)C |
| 5.4 | C[C@@H]1CN([C@H](C)CO)C(=O)c2cccc(NC(=O)Nc3ccccc3)c2O[C@H]1CN(C)C(=O)NC1CCCCC1 |
| -6.4 | C[C@@H]1CCCCO[C@@H](CN(C)Cc2ccccc2)[C@H](C)CN([C@H](C)CO)C(=O)c2cc(N(C)C)ccc2O1 |
| 3.3 | C[C@@H]1CCCCO[C@H](CN(C)Cc2ccccc2)[C@H](C)CN([C@@H](C)CO)C(=O)c2cc(NS(C)(=O)=O)ccc2O1 |
| 5.8 | C[C@@H]1CN([C@H](C)CO)C(=O)c2cccc(N(C)C)c2O[C@H]1CN(C)Cc1ccc(C(=O)O)cc1 |
| 4.8 | C[C@@H]1CN([C@H](C)CO)C(=O)Cc2cc(NS(=O)(=O)c3ccccc3)ccc2O[C@@H]1CN(C)S(=O)(=O)c1ccc(F)cc1 |
| ? | C[C@@H]1CN([C@@H](C)CO)C(=O)c2cc(NS(C)(=O)=O)ccc2O[C@@H]1CN(C)C(=O)Nc1ccc(F)cc1 |
| -1.0 | C[C@@H]1CN([C@@H](C)CO)C(=O)c2cc(NC(=O)C3CC3)ccc2O[C@@H]1CN(C)C(=O)Nc1ccccc1 |
| 0.8 | C[C@H](CO)N1C[C@H](C)[C@H](CN(C)C(=O)Nc2ccccc2)Oc2ccc(NC(=O)CCN3CCOCC3)cc2CC1=O |
| -5.1 | CC(C)NC(=O)Nc1ccc2c(c1)CC(=O)N([C@H](C)CO)C[C@H](C)[C@H](CN(C)Cc1ccc(-c3ccccc3)cc1)O2 |
| -2.8 | C[C@H]1CCCCO[C@H](CN(C)C(=O)CCCN(C)C)[C@@H](C)CN([C@@H](C)CO)C(=O)c2cc(NC(=O)c3ccncc3)ccc2O1 |
| -5.4 | C[C@H](CO)N1C[C@H](C)[C@@H](CN(C)S(=O)(=O)c2ccc(Cl)cc2)Oc2c(NC(=O)Nc3ccc(F)cc3)cccc2C1=O |
| ? | C[C@@H]1CN([C@H](C)CO)C(=O)c2cccc(NS(=O)(=O)c3ccc(Cl)cc3)c2O[C@H]1CN(C)Cc1ccc(C(=O)O)cc1 |
| -2.0 | C[C@H]1CN([C@@H](C)CO)C(=O)c2cc(NC(=O)CCCN(C)C)ccc2O[C@@H]1CN(C)C |
| 0.1 | C[C@@H]1CN([C@@H](C)CO)C(=O)Cc2cc(N(C)C)ccc2O[C@@H]1CN(C)C(=O)Nc1cccc2ccccc12 |
| -2.3 | C[C@H](CO)N1C[C@H](C)[C@@H](CN(C)C(=O)NC2CCCCC2)Oc2ccc(NC(=O)Nc3ccc(C(F)(F)F)cc3)cc2C1=O |
| 0.5 | C[C@H]1CCCCO[C@@H](CN(C)Cc2ccccc2)[C@@H](C)CN([C@@H](C)CO)C(=O)c2cc(N(C)C)ccc2O1 |
| 0.0 | C[C@@H]1CN([C@H](C)CO)C(=O)c2cc(NS(=O)(=O)c3cccs3)ccc2O[C@@H](C)CCCCO[C@@H]1CN(C)C(=O)CCCN(C)C |
| -1.5 | COc1ccc(S(=O)(=O)N(C)C[C@H]2Oc3c(NC(=O)C4CC4)cccc3C(=O)N([C@@H](C)CO)C[C@@H]2C)cc1 |
| -5.8 | C[C@H](CO)N1C[C@H](C)[C@H](CN(C)C(=O)Nc2cccc3ccccc23)Oc2ccc(NS(C)(=O)=O)cc2CC1=O |
| ? | COc1ccc(S(=O)(=O)N(C)C[C@@H]2Oc3c(NC(=O)c4ccc(-c5nccs5)cc4)cccc3C(=O)N([C@@H](C)CO)C[C@H]2C)cc1 |
| -0.8 | C[C@@H]1CN([C@@H](C)CO)C(=O)c2cc(NC(=O)C3CC3)ccc2O[C@@H]1CN(C)C |
| 2.7 | C[C@@H]1CN([C@@H](C)CO)C(=O)Cc2cc(NC(=O)Nc3ccccc3)ccc2O[C@H]1CN(C)Cc1ccc(C(=O)O)cc1 |
| 1.6 | CC(C)NC(=O)N(C)C[C@@H]1OCCCC[C@H](C)Oc2ccc(NC(=O)Nc3ccc4c(c3)OCO4)cc2C(=O)N([C@H](C)CO)C[C@@H]1C |
| 4.2 | C[C@H]1CN([C@@H](C)CO)C(=O)Cc2cc(NC(=O)Cn3cnnn3)ccc2O[C@H]1CN(C)C(=O)NC1CCCCC1 |
| -1.4 | Cc1noc(C)c1S(=O)(=O)Nc1ccc2c(c1)C(=O)N([C@H](C)CO)C[C@H](C)[C@H](CN(C)C(=O)Cc1ccccc1)OCCCC[C@H](C)O2 |
| -0.1 | CC(C)NC(=O)Nc1ccc2c(c1)C(=O)N([C@@H](C)CO)C[C@@H](C)[C@@H](CN(C)Cc1ccccc1)OCCCC[C@@H](C)O2 |
| 4.9 | C[C@H](CO)N1C[C@H](C)[C@@H](CN(C)Cc2ccncc2)Oc2ccc(NC(=O)Cn3cnnn3)cc2C1=O |
| -1.1 | C[C@H](CO)N1C[C@H](C)[C@H](CN(C)Cc2ccc(C(F)(F)F)cc2)OCc2cn(nn2)CCCC1=O |
| 1.3 | COc1ccc(CN(C)C[C@@H]2Oc3c(NC(=O)Nc4c(C)noc4C)cccc3C(=O)N([C@H](C)CO)C[C@H]2C)cc1 |
| ? | C[C@H](CO)N1C[C@H](C)[C@@H](CN(C)Cc2ccccc2)Oc2c(NC(=O)C3CCOCC3)cccc2C1=O |
| 1.4 | CNC[C@@H]1Oc2ccc(NS(C)(=O)=O)cc2CC(=O)N([C@H](C)CO)C[C@@H]1C |
| 4.3 | C[C@@H]1CN([C@H](C)CO)C(=O)c2cccc(NC(=O)Nc3cccc4ccccc34)c2O[C@H]1CN(C)C(=O)NC1CCCCC1 |
| -2.5 | C[C@@H]1CN([C@H](C)CO)C(=O)c2cc(NC(=O)Nc3cccc4ccccc34)ccc2O[C@H]1CN(C)C(=O)NC1CCCCC1 |
| 4.5 | C[C@H](CO)N1C[C@H](C)[C@H](CN(C)Cc2ccccc2)Oc2ncc(-c3cccc(C(F)(F)F)c3)cc2C1=O |
| 1.2 | Cc1noc(C)c1NC(=O)Nc1ccc2c(c1)CC(=O)N([C@@H](C)CO)C[C@@H](C)[C@H](CN(C)S(=O)(=O)c1cn(C)cn1)O2 |
| 0.1 | C[C@@H]1CN([C@@H](C)CO)C(=O)Cc2cc(NC(=O)CCCN(C)C)ccc2O[C@@H]1CN(C)S(=O)(=O)c1cccs1 |
| -2.2 | C[C@H](CO)N1C[C@H](C)[C@@H](CN(C)C(=O)Cc2ccccc2)OCc2cn(nn2)CCCC1=O |
| ? | C[C@H](CO)N1C[C@H](C)[C@H](CN(C)Cc2ccc3c(c2)OCCN3C)OCc2cn(nn2)CCCC1=O |
| ? | C[C@@H]1CCCCO[C@H](CN(C)C(=O)CCC(F)(F)F)[C@@H](C)CN([C@H](C)CO)C(=O)c2cc(NS(C)(=O)=O)ccc2O1 |
| -3.0 | C[C@H](CO)N1C[C@H](C)[C@H](CN(C)CC2CC2)Oc2ccc(NC(=O)Nc3cccc4ccccc34)cc2CC1=O |
| 0.7 | C[C@@H]1CN([C@H](C)CO)C(=O)c2cc(NC(=O)C3CC3)ccc2O[C@@H]1CN(C)Cc1ccc(Cl)c(Cl)c1 |
| -1.9 | Cc1noc(C)c1S(=O)(=O)Nc1cccc2c1O[C@@H](CN(C)C(=O)NC1CCCCC1)[C@@H](C)CN([C@H](C)CO)C2=O |
| 1.9 | COc1ccc(-c2cnc3c(c2)C(=O)N([C@H](C)CO)C[C@H](C)[C@H](CN(C)S(=O)(=O)c2cn(C)cn2)O3)cc1 |
| 2.0 | C[C@H](CO)N1C[C@H](C)[C@@H](CN(C)S(=O)(=O)c2cn(C)cn2)Oc2c(NC(=O)c3ccc(-c4nccs4)cc3)cccc2C1=O |
| 3.7 | C[C@@H]1CCCCO[C@@H](CN(C)Cc2ccccc2)[C@@H](C)CN([C@H](C)CO)C(=O)c2cc(NS(C)(=O)=O)ccc2O1 |
| ? | C[C@@H]1CN([C@H](C)CO)C(=O)c2cc(NC(=O)NC3CCCCC3)ccc2O[C@@H]1CN(C)S(=O)(=O)c1ccc(Cl)cc1 |
| -2.3 | C[C@H]1CCCCO[C@@H](CN(C)Cc2ccncc2)[C@@H](C)CN([C@@H](C)CO)C(=O)c2cc(NC(=O)Nc3ccc(F)cc3)ccc2O1 |

Part of the list above, field by field:
C[C@H](CO)N1C[C@H](C)[C@H](CN(C)Cc2ccc(C(F)(F)F)cc2)OCc2cn(nn2)CCCC1=O
  Ran FRET: -1.1
COc1ccc(CN(C)C[C@@H]2Oc3c(NC(=O)Nc4c(C)noc4C)cccc3C(=O)N([C@H](C)CO)C[C@H]2C)cc1
  Ran FRET: 1.3
C[C@H](CO)N1C[C@H](C)[C@@H](CN(C)Cc2ccccc2)Oc2c(NC(=O)C3CCOCC3)cccc2C1=O
  Ran FRET: ?
CNC[C@@H]1Oc2ccc(NS(C)(=O)=O)cc2CC(=O)N([C@H](C)CO)C[C@@H]1C
  Ran FRET: 1.4

Other records
| Ran FRET | SMILES |
| --- | --- |
| 0.0 | C[C@@H]1CN([C@@H](C)CO)C(=O)c2cc(NC(=O)Nc3cccc4ccccc34)ccc2O[C@@H](C)CCCCO[C@@H]1CN(C)C |
| -1.8 | COc1ccc(CN(C)C[C@H]2Oc3c(NC(=O)NC(C)C)cccc3C(=O)N([C@@H](C)CO)C[C@@H]2C)cc1 |
| -5.2 | C[C@@H]1CCCCO[C@@H](CN(C)C)[C@@H](C)CN([C@@H](C)CO)C(=O)c2cc(NS(=O)(=O)c3cn(C)cn3)ccc2O1 |
| 7.4 | C[C@@H]1CN([C@@H](C)CO)C(=O)CCCn2cc(nn2)CO[C@@H]1CN(C)S(=O)(=O)c1ccc2c(c1)OCCCO2 |
| 5.1 | C[C@H](CO)N1C[C@H](C)[C@@H](CN(C)C(=O)Nc2ccccc2)OCCCC[C@H](C)Oc2ccc(N(C)C)cc2C1=O |
| -1.0 | CC(C)NC(=O)N(C)C[C@H]1OCCCC[C@H](C)Oc2ccc(NC(=O)Nc3ccccc3)cc2C(=O)N([C@@H](C)CO)C[C@H]1C |
| 3.2 | Cc1noc(C)c1NC(=O)N(C)C[C@@H]1Oc2ccc(NC(=O)c3ccncc3)cc2CC(=O)N([C@H](C)CO)C[C@H]1C |
| -0.8 | C[C@@H]1CCCCO[C@@H](CN(C)Cc2ccc(C(=O)O)cc2)[C@@H](C)CN([C@H](C)CO)C(=O)c2cc(NC(=O)c3ccncc3)ccc2O1 |
| -0.2 | Cc1noc(C)c1NC(=O)Nc1ccc2c(c1)C(=O)N([C@@H](C)CO)C[C@@H](C)[C@H](CN(C)C(=O)Nc1c(C)noc1C)OCCCC[C@H](C)O2 |
| 1.3 | C[C@@H]1CN([C@H](C)CO)C(=O)Cc2cc(NC(=O)Nc3cccc4ccccc34)ccc2O[C@@H]1CN(C)Cc1ccncc1 |
| ? | C[C@H](CO)N1C[C@H](C)[C@H](CN(C)C(=O)CCC(F)(F)F)OCCCC[C@H](C)Oc2ccc(NC(=O)Cc3ccccc3)cc2C1=O |
| -0.7 | CNC[C@H]1OCCCC[C@@H](C)Oc2ccc(NS(=O)(=O)c3c(C)noc3C)cc2C(=O)N([C@H](C)CO)C[C@H]1C |
| 2.9 | C[C@H](CO)N1C[C@H](C)[C@@H](CN(C)S(=O)(=O)c2ccc(Cl)cc2)OCc2cn(nn2)CCCC1=O |
| 1.7 | C[C@H]1CN([C@@H](C)CO)C(=O)CCCn2cc(nn2)CO[C@@H]1CN(C)C(=O)OCc1ccccc1 |
| ? | Cc1noc(C)c1S(=O)(=O)Nc1cccc2c1O[C@H](CN(C)Cc1ccc(C(=O)O)cc1)[C@@H](C)CN([C@@H](C)CO)C2=O |
| 4.6 | C[C@@H]1CN([C@H](C)CO)C(=O)c2cccc(NS(=O)(=O)c3ccc(F)cc3)c2O[C@@H]1CN(C)Cc1ccc(C(F)(F)F)cc1 |
| 0.3 | Cc1noc(C)c1S(=O)(=O)N(C)C[C@H]1Oc2ccc(NC(=O)NC(C)C)cc2CC(=O)N([C@H](C)CO)C[C@@H]1C |
| -4.3 | C[C@@H]1CCCCO[C@@H](CN(C)C(=O)c2ccncc2)[C@@H](C)CN([C@H](C)CO)C(=O)c2cc(N(C)C)ccc2O1 |

3 compounds from above, arranged by their value in Ran FRET, largest number first:
SMILES | Ran FRET
C[C@@H]1CN([C@H](C)CO)C(=O)c2cc(NC(=O)C3CC3)ccc2O[C@@H]1CN(C)Cc1ccc(Cl)c(Cl)c1 | 0.7
CC(C)NC(=O)Nc1ccc2c(c1)C(=O)N([C@@H](C)CO)C[C@@H](C)[C@@H](CN(C)Cc1ccccc1)OCCCC[C@@H](C)O2 | -0.1
COc1ccc(S(=O)(=O)N(C)C[C@H]2Oc3c(NC(=O)C4CC4)cccc3C(=O)N([C@@H](C)CO)C[C@@H]2C)cc1 | -1.5
